Rango release inh: qHTS Assay for Inhibitors of RanGTP induced Rango (Ran-regulated importin-beta cargo) - Importin beta complex dissociation. Snurportin-1 (Homo sapiens) + GTP-binding nuclear protein Ran (Homo sapiens) + Importin …. Biochemical FRET Rango-importin beta, RanGTP-induced dissociation. Potency, µM (highest dose often 46.1 µM), for the others: top-dose activity change, negative = inhibition. 340,000 tested, 0.071% active. AID 540253, 2011; active means falling FRET ratio curve, often poorly fitted, with flat reads before Ran was added; inconclusive means other falling curves, or compound fluorescence or quenching; inactive means flat or rising ratio curve;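 note: potency is the fitted concentration of half-maximal effect; % of control where 0% means no effect; nearly all actives have a fitted effect of over 45% in size; -100% = wells without RanGTP and RCC1; the record marks most hits as doubtful in a second field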
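FRET read at 45 min, room temperature: inhibitors block the CFP/YFP signal rise when RanGTP (0.6 uM Ran, 2 mM GTP, 0.2 uM RCC1) frees Rango (0.1 uM) from importin beta (0.25 uM). Pre-read after 5 min compound exposure flags interference.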
Rango-impB inh: qHTS Assay for Inhibitors of Rango (Ran-regulated importin-beta cargo) - Importin beta complex formation. 340,000 tested, 0.031% active. Potency, µM (series often up to 92.2 µM), for inactives: at the top dose inhibition of complex formation. Importin subunit beta-1 (Homo sapiens), Q14974. Rango CFP/YFP FRET sensor + importin beta, 45 min; active = rising FRET ratio curve, often small or poorly fitted; inconclusive = mostly compound fluorescence or quenching in the first reads; inactive = flat curves in all reads;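 note: potency is the fitted concentration of half-maximal effect; 0% = DMSO wells and 100% = buffer wells lacking importin beta; nearly all actives have a fitted effect of over 15% in size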
Target sequence (Q14974 whole entry, looked up): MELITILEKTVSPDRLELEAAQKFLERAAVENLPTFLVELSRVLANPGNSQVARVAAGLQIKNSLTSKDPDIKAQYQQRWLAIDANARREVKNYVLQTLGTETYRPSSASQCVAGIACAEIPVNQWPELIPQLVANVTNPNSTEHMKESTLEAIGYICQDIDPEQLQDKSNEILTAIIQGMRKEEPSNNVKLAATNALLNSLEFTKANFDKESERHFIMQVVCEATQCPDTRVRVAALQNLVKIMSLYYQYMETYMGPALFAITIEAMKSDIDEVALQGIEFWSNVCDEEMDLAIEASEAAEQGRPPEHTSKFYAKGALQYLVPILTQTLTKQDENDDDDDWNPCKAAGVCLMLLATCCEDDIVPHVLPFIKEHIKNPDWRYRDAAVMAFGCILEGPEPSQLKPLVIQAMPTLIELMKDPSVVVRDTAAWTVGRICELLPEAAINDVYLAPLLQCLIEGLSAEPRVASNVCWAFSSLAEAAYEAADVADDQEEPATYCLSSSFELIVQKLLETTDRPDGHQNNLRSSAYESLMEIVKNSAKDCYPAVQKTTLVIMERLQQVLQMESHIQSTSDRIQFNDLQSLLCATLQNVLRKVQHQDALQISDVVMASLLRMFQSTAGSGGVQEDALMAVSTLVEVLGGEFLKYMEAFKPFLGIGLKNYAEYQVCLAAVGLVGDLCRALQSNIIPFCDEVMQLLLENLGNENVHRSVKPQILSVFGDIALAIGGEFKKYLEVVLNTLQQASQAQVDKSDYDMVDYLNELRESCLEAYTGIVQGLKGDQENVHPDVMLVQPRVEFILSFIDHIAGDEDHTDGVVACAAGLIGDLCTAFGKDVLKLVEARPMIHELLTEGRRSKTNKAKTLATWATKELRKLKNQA
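FRET biosensor (snurportin 1 IBB flanked by EYFP and cerulean), 50 nM, with compound 5 min, then 0.125 microM importin beta in PBS, 1 mM DTT, 0.02% Tween-20, 0.1% BSA. CFP/YFP ratio read after 45 min at room temperature; pre-read flags interference.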
miR-21 FLuc: qHTS Assay for Modulators of miRNAs and/orActivators of miR-21 | HeLa miR-21 FLuc reporter, luciferase, 48 h | Potency, µM (doses to about 38.3 µM), for the others: at the highest dose reporter change, positive = more light | 340,000 tested, under 10 active | AID 2288, 2010; active = well fitted rising curve with a large enough effect; inconclusive = small, poorly fitted or top-dose-only effect; inactive = no such curve, though single readings can be large or run the other way;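 note: % of control where 0% means no effect; miR-21 action dims this reporter so a rising signal means less miR-21 action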
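HeLa cells endogenously expressing miR-21, stably carrying CMV-driven firefly luciferase with a downstream miR-21 binding site, 2000 cells/well. Titrations up to approximately 40 uM, 48 hours; luciferase luminescence read.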
GLA inh pH 4.5: qHTS Assay for Inhibitors of Human alpha-Galactosidase at pH 4.5; Alpha-galactosidase A (Homo sapiens), P06280; purified enzyme, 4-MU-alpha-Gal fluorescence, pH 4.5; activity change, negative = inhibition, % at 105 µM; 230,000 tested, under 10 active; AID 1467, 2008; inconclusive = small, poorly fitted or top-dose-only inhibition, or a rising curve; inactive = flat fitted curve, though single readings scatter; no compound was filed as active;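 note: 0% = full activity with enzyme and -100% = basal without enzyme; dose as in the result columns while the protocol names 77 µM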
The depositor's hits bear a star; ? = inconclusive; . = no result given; & = joins results of further samples. Only part of the results is shown, so the mix of outcomes need not match the whole.

SMILES	Rango release inh	Rango-impB inh	miR-21 FLuc	GLA inh pH 4.5
O=C1NC2c3ccccc3CC2O1 (centres undefined)	-5%	-1.4%	5%	.
O=C(O)c1sccc1NC(=O)c1c(Cl)cccc1Cl	16%	1.1%	-1%	.
COc1ccc(NC(=O)CN(C)S(=O)(=O)c2ccc(Br)s2)cc1	9%	2.2%	7%	.
C=CCC1(C#N)C(=S)NC2=C(C(=O)CC(C)(C)C2)C1c1ccc(Br)cc1 (centres undefined)	1%	0.5%	3%	-7
COc1ccc2cc(C(=O)NCc3ccco3)c(=O)oc2c1	?	?	-48%	-3
CSc1cccc(NC(C)=O)c1	-11%	-2.6%	-3%	3
Cc1nn(C)c(C)c1CNC(=O)/C=C/c1ccccc1F	13%	-1.8%	-7%	-10
CCC(=O)Nc1c2c(nn1-c1ccccc1)CSC2	4%	-0.6%	1%	.
Cc1csc(NC(=O)c2ccco2)n1	21%	4.7%	-5%	-3
O=C(COC(=O)c1ccc2ncsc2c1)NC(=O)NCc1ccccc1	1%	2.1%	-5%	-5
CC(=Nc1ccc(C)c(C)c1)C1=C(O)CCC1=O	1%	0.1%	-32%	-3
COc1cccc(OCC(O)CN2CCC(Cc3ccccc3)CC2)c1 (centres undefined)	-2%	-0.8%	-2%	-2
O=[N+]([O-])c1cc([N+](=O)[O-])c(Oc2cc(Cl)cc(Cl)c2)cc1NN1CCCCC1	13%	0.2%	.	.
COc1cccc(OC)c1C(=O)OCc1c(-c2ccccc2)ncc2ccccc12	10%	-1.3%	.	.
COc1cccc(Cn2nnc(C(=O)NCCc3ccc(Cl)cc3)c2N)c1	-7%	-0.5%	-2%	-4
COc1ccc(CC(=O)NCc2nnc(SCC(=O)Nc3ncc(C)s3)n2C)cc1	10%	-2.3%	0%	-8
O=[N+]([O-])c1cc(/C=N\Nc2nccs2)ccc1O	.	.	-3%	1
COC(=O)CSc1[nH]c2ccccc2c1[N+](=O)[O-]	-6%	-2.5%	-3%	-3
CCOc1cc(C2NC(=O)NC(O)(C(F)(F)F)C2C(=O)c2ccc(Cl)cc2)ccc1O (centres undefined)	5%	2.3%	5%	3
COc1cccc(-c2noc(CCC(=O)NCCc3ccccc3)n2)c1	10%	1.2%	-21%	.
Cc1ccc(S(=O)(=O)/N=C(\Sc2ccccc2)c2ccccc2)cc1	7%	3.9%	0%	4
CC(=O)C(N=Nc1ccccc1)(Sc1nnc(-c2ccccc2)n1-c1ccccc1)C(C)=O	-3%	-0.1%	18%	-2
CCN(CCn1cccn1)C(=O)c1ccc2nc(Cc3ccc(OC)cc3)oc2c1	-1%	-0.4%	-15%	.
Cc1ccc(Cl)cc1NC(=O)c1ccc(Cn2cc(Cl)cn2)cc1	9%	-0.2%	15%	4
CCOC(=O)C1CCN(C(=O)c2cc(COc3ccc(OC)c4ccccc34)on2)CC1	3%	3.3%	-54%	.

Seven entries from above, with two lines to a compound.
Values run as follows: Rango release inh | Rango-impB inh | miR-21 FLuc | GLA inh pH 4.5
Cc1nn(C)c(C)c1CNC(=O)/C=C/c1ccccc1F
 : 13% | -1.8% | -7% | -10
CCC(=O)Nc1c2c(nn1-c1ccccc1)CSC2
 : 4% | -0.6% | 1% | .
Cc1csc(NC(=O)c2ccco2)n1
 : 21% | 4.7% | -5% | -3
O=C(COC(=O)c1ccc2ncsc2c1)NC(=O)NCc1ccccc1
 : 1% | 2.1% | -5% | -5
CC(=Nc1ccc(C)c(C)c1)C1=C(O)CCC1=O
 : 1% | 0.1% | -32% | -3
COc1cccc(OCC(O)CN2CCC(Cc3ccccc3)CC2)c1 (centres undefined)
 : -2% | -0.8% | -2% | -2
O=[N+]([O-])c1cc([N+](=O)[O-])c(Oc2cc(Cl)cc(Cl)c2)cc1NN1CCCCC1
 : 13% | 0.2% | . | .

The list continues:
SMILES	Rango release inh	Rango-impB inh	miR-21 FLuc	GLA inh pH 4.5
O=C(CSC1CCCCC1)Nc1nccs1	2%	-3.5%	-31%	3
NC(=S)N/N=C/c1coc2cc(Cl)ccc2c1=O	-21%	-4.5%	-1%	2
N/C(=N\OC(=O)c1ccccc1)c1ccncc1	-13%	-0.5%	-56%	3
O=C(Nc1nnc(SCc2c(Cl)cccc2Cl)s1)c1ccc2ncsc2c1	.	.	-1%	1
S=C(Nc1ccccc1)Nc1ccc(OCc2ccc(Cl)cc2Cl)cc1	-2%	-0.2%	?	6
Cc1cccc(N2CCN(C(=O)CCn3c(=O)[nH]c4ccccc4c3=O)CC2)c1C	2%	1.7%	0%	5
CN1CCN(C(=O)c2cnn(-c3ccccc3)c2NC(=O)c2ccccc2Cl)CC1	-9%	-0.7%	0%	.
CCC[C@@H](CN1CCC[C@H]1CN1C(N)=NC[C@@H]1Cc1ccccc1)N1C[C@@H](Cc2ccccc2)N(CCc2ccc(Cl)c(Cl)c2)C1=N	30%	-1.9%	.	.
CO/N=C\c1cc(C(=O)c2ccc(Cl)cc2Cl)cn1C	-1%	-1.3%	-4%	0
O=S(=O)(c1ccc(NC(=S)N/N=C/c2ccc(N3CCOCC3)cc2)cc1)N1CCOCC1	-20%	?	-13%	0
CN(c1ccc(OCc2nnc(-c3ccccc3)o2)cc1)S(=O)(=O)c1ccccc1	-14%	2.3%	12%	-13
COC(=O)CC1NCCc2cc(OC)c(OC)cc21 (centres undefined)	-1%	3.7%	0%	6
O=C(CCN1CCCCO1)N1CCCC(Nc2ccc(F)cc2)C1 (centres undefined)	-14%	-2.7%	3%	.
COc1ccc(NC(=O)Cn2nnc(C(=O)NCc3ccco3)c2N)cc1	-10%	-1.3%	3%	.
O=C(/C=C/c1cccc(Cl)c1Cl)OCC(=O)N1CCOCC1	16%	0.5%	.	.
COCCN(C(=O)c1ccccc1F)c1nc(-c2ccc(OC)cc2)cs1	-10%	-5.3%	-7%	.
CCn1c(SCC(=O)Nc2nc(-c3ccc(C)cc3)cs2)nnc1-c1ccccc1O	2%	2.3%	15%	-3
CCOc1ccc(NC(=O)CCNC(=O)c2ccc(Br)cc2)cc1	-5%	0.5%	-41%	.
Cc1nc(SCC(=O)NC(=O)NC(C)C)nc(C)c1C	1%	-1.0%	-1%	-19
CN1CCC(=NNc2ncnc3sc4c(c23)CCCC4)CC1	-16%	0.2%	-12%	1
COc1ccc(CCn2c(-c3ccc(OC)cc3)nc3c(c(=O)c4ccccc4n3C)c2=O)cc1	-3%	5.3%	-2%	2
COC(=O)C(NC(=O)c1ccccc1)=C(C)C	17%	4.5%	-3%	-2
CC(=O)Nc1ccc(NC(=O)COC(=O)C2(c3ccc(Cl)cc3)CCCC2)cc1	-1%	-0.6%	22%	8
Cc1ccc(C=NNC(=O)c2cc(-c3cccnc3)nc3ccccc23)o1	-14%	2.1%	.	.
COCCCNC(=O)c1ccc(N(C)S(C)(=O)=O)cc1	?	1.3%	-4%	2
SMILES	Rango release inh	Rango-impB inh	miR-21 FLuc	GLA inh pH 4.5
N#Cc1cc2c([nH]c1=S)CCCCCC2	-15%	5.0%	-4%	-6
Cc1ccc(S(=O)(=O)N2CCCN(C(=O)OC(C)(C)C)CC2)cc1	9%	0.5%	-5%	-1
Cn1cnnc1SC(C(=O)Nc1cccc(C(F)(F)F)c1)c1ccccc1 (centres undefined)	7%	-1.5%	-1%	2
COc1cc(CNCCO)cc(Cl)c1OCc1ccccc1Cl	13%	2.9%	-9%	2
Cc1ccc2[nH]c(CSc3ccccc3)cc(=O)c2c1	19%	0.7%	1%	.
Cn1c2ccccc2c2n[nH]c(=O)nc21	10%	0.3%	-3%	-1
Cc1nc(NCc2ccccn2)c2c3c(sc2n1)CCCC3	-12%	-0.1%	15%	2
Cc1ccc(NC(=O)c2cc3ccccc3oc2=O)cc1S(=O)(=O)N(C)C	-4%	-0.4%	4%	1
CCOC(=O)C1CCN(S(=O)(=O)Cc2ccccc2)C1=O (centres undefined)	-3%	-2.6%	-4%	-9
O=C(Nc1ccc(F)cc1)c1cc2c(s1)CCCC2	4%	1.0%	-23%	2
CCO/C(C)=C1\C(=O)Nc2ccccc21	1%	2.7%	-8%	4
COC(=O)c1cc(-c2ccc(OC)c(OC)c2)n[nH]1	13%	-1.4%	-6%	-2
CCS(=O)(=O)c1ccc(C(=O)NC)c(Cl)c1Cl	17%	?	-1%	9
CCC(=O)N1N=C(c2ccc(C)o2)CC1c1ccc(N(C)C)cc1 (centres undefined)	49%	-3.0%	-30%	-3
CC1(C)CC(=O)C=C(Nc2ccccc2)C1	8%	-3.4%	2%	5
Cc1ccc(NC(=O)CN(C)C(=O)COC(=O)COc2ccc(C#N)cc2)cc1	1%	3.1%	.	.
CN(C(=O)c1ccc(NC(=O)c2ccco2)cc1)c1ccccc1	10%	-1.8%	-47%	.
C=CCN=Cc1sc2ccc(OCC)cc2c1O	.	.	-56%	-1
Cc1ccc(NC(=O)CSc2nnc(NC(=O)c3ccco3)s2)cc1	-10%	4.7%	-11%	2
COC(=O)C1=C(C)OC(N)=C(C#N)C1c1c(C)nn(C)c1C (centres undefined)	5%	-0.2%	1%	12
C[C@@H](O)CC#Cc1ccc2oc(=O)c(-n3cc(-c4ccsc4)nn3)cc2c1	-5%	1.0%	.	.
COC(=O)c1c(-c2ccc(Br)cc2)noc1N	-4%	-0.3%	-21%	3
CCC(C)C(=O)Nc1ccc(OC)cc1OC (centres undefined)	-14%	?	-1%	-8
Cc1cc(NC(=O)CN2C(=O)[C@@H]3[C@H](C2=O)[C@@H]2C[C@H]3C(Br)C2Br)no1 (some centres undefined)	15%	0.4%	6%	-12
COc1ccc(S(=O)(=O)N2CCOCC2)cc1NS(=O)(=O)c1ccc(F)c(F)c1	12%	?	.	.
SMILES	Rango release inh	Rango-impB inh	miR-21 FLuc	GLA inh pH 4.5
COc1ccc(CCC(C)Nc2cccc(C)c2)cc1 (centres undefined)	-3%	2.2%	-3%	-1
CC(C)COc1cccc(C(=O)NC(=S)NCc2cccnc2)c1	1%	-2.4%	-4%	-6
CC1=C(C(N)=O)S(=O)(=O)c2ccccc21	21%	0.8%	5%	-2
COc1ccccc1/C=C/c1onc(C)c1S(=O)(=O)N1CCC(C(=O)NC(C)C)CC1	-14%	4.2%	-2%	.
CC(C)(C)OC(=O)N1CCN(C(=O)Nc2ccc3c(c2)OCCO3)CC1	-10%	0.4%	-34%	11
COc1cccc(-c2csc(N3CCN(CC(=O)NNC(=O)c4ccco4)CC3)n2)c1	2%	-0.5%	-5%	-10
COC(=O)C1=C(C(=O)OC)[C@@H]2N(C)c3ccccc3[C@@]23C[C@@H](C(=O)OC)N(C(=O)c2cccs2)C3=N1	1%	1.6%	14%	13&5
O=C(CN1C(=O)C2C3C=CC(C3)C2C1=O)NC1CCCc2ccccc21 (centres undefined)	2%	-0.1%	4%	4
COc1cccc(CN(c2ccccc2C(=O)O)S(=O)(=O)c2ccc(C)cc2)c1	-3%	-1.4%	.	.
COC(=O)[C@@H]1[C@@H](C#N)C2(c3ccccc3-c3ccccc32)N(c2ccc(Cl)cc2)N1C#N	-1%	2.6%	14%	-2
N#Cc1ccccc1COc1cccc2c1CCCC2O (centres undefined)	21%	0.0%	-8%	.
Cc1ccccc1CC1(CO)CCCN(C(=O)c2ccccc2Cl)C1 (centres undefined)	0%	2.4%	-9%	-11
CN1C(=O)CCC2(c3ccccc3)CC=C(O)C=C12 (centres undefined)	-6%	-0.1%	.	.
Clc1cccc(CNCCCSc2ncccn2)c1Cl	0%	4.1%	-13%	.
Cc1ccc(N(CC(=O)NC2CCCC2)C(=O)CCC(=O)Nc2nc(C)cs2)cc1	11%	1.5%	2%	.
CC1(C)S[C@@H]2[C@H](NC(=O)C(C(=O)O)c3ccccc3)C(=O)N2[C@H]1C(=O)O (some centres undefined)	0%	2.1%	5%	3
O=C(Nc1ccc(NS(=O)(=O)c2ccccc2)cc1)c1ccccc1	-2%	0.4%	0%	.
CCCCn1c(SCC(=O)N2c3ccccc3CCc3ccccc32)nc2c1c(=O)n(C)c(=O)n2C	4%	-0.5%	0%	4
